CDC25B-CDK2 inh = human CDC25B-CDK2/CyclinA binding inhibition | P30305+P24941 | HTRF CDC25B-CDK2/CyclinA binding, anti-His/anti-Flag; stronger effect = higher value | z-score (concentration not given with the values) | 0.72% of 94,000 active | AID 1259370;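 note: score is relative to mean and SD of negative controls; strong numbers were not always called active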
HIV TAR-Tat = HIV-1 TAR-Tat binding disruption | HIV-1 TAR RNA, Tat peptide displacement FRET; stronger effect = higher value | z-score (test concentration not listed) | 0.6% of 100,000 active;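 note: score is relative to mean and SD of negative controls; some compounds called inactive have numbers as strong as hits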
Active calls of the source: *; . = not tested or not shown.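 Rule for the calls: active = z-score from 3 up in half or more of its runs; inactive = the rest.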

entry	SMILES	HIV TAR-Tat	CDC25B-CDK2 inh
1	COc1ccc(CN2C(=O)c3oc4ccc(Cl)cc4c(=O)c3C2c2ccc(O)c(OC)c2)cc1 (configuration not stated)	-1.4	-1.9
2	Cc1c(Cl)c([N+](=O)[O-])nn1CC(=O)NCCCN1CCOCC1	0.29	-1.3
3	CN(Cc1ccccc1)c1nccnc1N	0.64	.
4	O=C(Nc1nnc2n1CCS2)c1c(F)cccc1F	1.2	.
5	CC(C)(C)C(=O)OC/C(N)=N/OC(=O)c1ccc(Cl)c(Cl)c1	.	-1.6
6	CCOc1ccccc1Nc1ncnc2ccccc12	1	0.45
7	COc1ccc(NS(=O)(=O)c2c(C)nc3sccn3c2=O)cc1OC	2.4	-2.1
8	Cc1ccc(-c2cc(C(=O)N(Cc3cccs3)C3CCS(=O)(=O)C3)no2)cc1C (configuration not stated)	0.89	-1.4
9	CC(C)Cn1cc(NC(=O)N2CCC(c3ccccc3)C2)c2ccccc2c1=O (configuration not stated)	2.2	.
10	CCOC(=O)c1cc(-c2ccc(S(=O)(=O)Nc3ccc(C)cn3)s2)on1	-0.74	.
11	CCCCN(C1=NC2CS(=O)(=O)CC2S1)c1ccc(C)c(C)c1 (configuration not stated)	0.5	-0.44
12	CCC(Cc1ccccc1)NC(=O)C1=C(C)C(=O)OC12CCC(C)CC2 (configuration not stated)	1	-0.49
13	Cc1nc(C(=O)O)cc2c1[nH]c1ccccc12	1.5	-1.8
14	CCn1c(C(=O)N2CCC(C(=O)NC3CCCC(C)C3C)CC2)cc2sccc21 (configuration not stated)	1.1	-0.78
15	Cc1c(-c2nsc(NC(=O)c3ccco3)n2)nnn1-c1ccc(Br)cc1	-1.1	-0.18
16	CCc1ccc(C2c3c(-c4cc(C)ccc4O)n[nH]c3C(=O)N2CCO)cc1 (configuration not stated)	-0.35	-1.9
17	CC(C)OC(=O)CSc1nnc(-c2ccc(Br)cc2)o1	2.5	-0.81
18	Cc1cc(C(=O)O)ccc1-n1nnc2cccnc21	1.6	-0.33
19	O=C(CSc1ccccn1)N1CCN(S(=O)(=O)c2ccccc2)C1	0.56	-0.79
20	CC(C)OCCCNC(=O)Nc1cn(C)c(=O)c2ccccc12	0.73	.
21	O=[N+]([O-])c1ccc(Oc2ccc(C(F)(F)F)cc2[N+](=O)[O-])c(C2SCCS2)c1	.	-1.6
22	Cc1cc(SCC(=O)NN)c(C)cc1Cl	.	-0.48
23	CCOc1ccc(C2C(C(=O)c3ccco3)=C(O)C(=O)N2Cc2cccnc2)cc1OC (configuration not stated)	1.6	-1.3
24	CSc1cccc(NC(=O)C2CCC(CNc3c(N4CCOCC4)c(=O)c3=O)CC2)c1 (configuration not stated)	1.1	-2.6
25	Nc1nc2c(c(=O)[nH]1)C(c1ccccc1Br)CC(=O)N2 (configuration not stated)	0.64	-1.4
26	CCN1CCN(C(=O)c2cc3n(n2)CC(C)(C(=O)NC2CCCC2)N(CC)C3=O)CC1 (configuration not stated)	1.2	.
27	CNCc1nc2cc(C(=O)N(C)C)ccc2n1C	-0.27	.
28	O=C(Cn1c(=O)n(-c2ccc(F)cc2)c(=O)c2sc3ccccc3c21)NC1CCCC1	1.6	-1.6
29	COc1ccc(OCC(NS(=O)(=O)c2ccc(-n3cnnn3)cc2)C(C)C)cc1 (configuration not stated)	2.1	-2
30	O=C(CCc1nc(-c2cccs2)no1)Nc1ccccc1Cl	1.8	-0.72
31	CCCn1ccc2cc(S(=O)(=O)N3CCN(S(=O)(=O)c4cccc(Cl)c4)CC3)ccc21	0	.
32	CN1C(C(=O)c2ccccc2)=C(NC(=O)c2ccccc2Br)c2ccccc2S1(=O)=O	-0.13	0.03
33	Cc1ccccc1C1CC(=O)c2cnc3[nH]n(-c4ccccc4)c(=O)c3c2C1 (configuration not stated)	-0.67	-3.3
34	NC(=O)C1(N2CCCCC2)CCN(C(=O)CSCC(=O)O)CC1	.	-1
35	Cc1cc(N2CCN(CCO)CC2)n2nc(Cc3ccc(Cl)cc3)nc2n1	1.2	-0.07
36	O=C(Nc1cccc(O)c1)c1cccc(NC(=O)c2ccc(Cl)c(Cl)c2)c1	.	0.36
37	Cc1cc(C)nc(SCc2nc3ccccn3c2Br)n1	-0.65	-0.53
38	CC(C)NC(=O)c1ccc2c(=O)n(C)c3n[nH]c(=O)n3c2c1	-1.3	-3.6
39	COc1ccc(CCNc2ncnc3scc(-c4ccc(F)cc4)c23)cc1OC	-1.1	.
40	Cc1ccc(C)c(CN2C(=O)C(O)(c3c(C)[nH]c4ccccc34)c3ccccc32)c1 (configuration not stated)	-1.7	2.9
41	Cc1cc(NS(=O)(=O)c2ccc(NS(=O)(=O)c3ccc(Cl)cc3)cc2)no1	.	0.79
42	CCCN1C(=O)c2cc(C(=O)NCCN3CCOCC3)nn2CC1(C)C(=O)NC1CCCC1 (configuration not stated)	-0.24	.
43	C[Si](C)(C)c1cn[nH]c1[Si](C)(C)C	.	-3
44	Cc1ccc(Cl)cc1N1C(=O)N(C)c2ccccc2S1(=O)=O	-0.38	.
45	COc1ccc(OCc2nc(N)nc(SC)n2)cc1	.	0.27
46	Cc1cc(C)c(S(=O)(=O)NCCc2csc3nc(-c4ccccc4)nn23)c(C)c1	1.3	.
47	CCCNC(=O)C12N=CNN=C1N(C)C(=O)N2C (configuration not stated)	.	-1.6
48	Cc1nc2ccccc2c2oc(C(=O)NC3CC3)cc12	-0.43	-2.2
49	CSc1ccc(C(=O)O)s1	.	-1.1
50	Cc1ccc2c(c1)C(C)(c1ccccc1)CC(C)(C)N2C(=O)CSc1nncn1C (configuration not stated)	0.67	-0.1
51	O=C(CSc1ccc2nnc(CCNS(=O)(=O)c3ccccc3)n2n1)Nc1ccccc1	1.9	.
52	COCCCNc1c(-c2ccc(C)cc2)nc2sc3cc(C)ccc3n12	-0.01	.
53	CSc1cccc(NC(=O)CSc2ncc(S(=O)(=O)c3ccccc3)c(=O)[nH]2)c1	-0.38	0.3
54	CCN(CCCNC(=O)c1c(O)nc2cc(C)ccn2c1=O)c1ccccc1	0.87	-2.5
55	Cc1nc2nc[nH]n2c(=O)c1CCC(=O)NCc1ccc2c(c1)OCO2	1.3	-0.85
56	CCOc1ccc(-c2cccc(NS(C)(=O)=O)c2)nn1	0.85	.

(listing goes on)
entry	SMILES	HIV TAR-Tat	CDC25B-CDK2 inh
57	O=C1c2oc3ccccc3c(=O)c2C(c2cccc(O)c2)N1Cc1ccccc1 (configuration not stated)	1.9	-0.01
58	COc1ccc(N2C(=O)CSCC2=O)cc1OC	.	-0.78
59	CCOC(=O)N1CCc2c(sc3c2c(=O)n(-c2ccc(Cl)cc2)c(=O)n3C)C1	0.57	-0.09
60	Cc1cc2n(n1)C(c1ccc(N(C)C)cc1)Nc1ccccc1-2 (configuration not stated)	3	-2.3
61	O=C(O)CCc1nc(-c2ccccn2)no1	0.37	-1.1
62	COc1ccc(S(=O)(=O)c2c(C(=O)c3ccccc3)cnc3cc(OC)c(OC)cc23)cc1	-0.19	-1.1
63	Cc1ccc(-c2nnn3c2nc(NCCc2ccc(S(N)(=O)=O)cc2)c2ccccc23)cc1	-0.04	-1
64	Cc1cc(-c2ccc(C)c(S(=O)(=O)NCCN(CC(C)C)CC(C)C)c2)on1	0.38	.

Full records, quoted from the list. Screens in order: HIV TAR-Tat	CDC25B-CDK2 inh
`Cc1ccc(-c2nnn3c2nc(NCCc2ccc(S(N)(=O)=O)cc2)c2ccccc23)cc1` in the list: -0.04	-1
`O=C(O)CCc1nc(-c2ccccn2)no1` in the list: 0.37	-1.1
`Cc1cc2n(n1)C(c1ccc(N(C)C)cc1)Nc1ccccc1-2` (configuration not stated) in the list: 3	-2.3
`O=C1c2oc3ccccc3c(=O)c2C(c2cccc(O)c2)N1Cc1ccccc1` (configuration not stated) in the list: 1.9	-0.01
`COc1ccc(N2C(=O)CSCC2=O)cc1OC` in the list: .	-0.78

Later entries
entry	SMILES	HIV TAR-Tat	CDC25B-CDK2 inh
65	O=S(=O)(Nc1ccc2c(c1)N(S(=O)(=O)c1ccc(F)cc1)CCC2)c1ccccc1	2.3	.
66	Cc1c(-c2nc(-c3ccc(Cl)cc3)no2)nnn1-c1ccc(F)cc1F	-0.25	.
67	O=C(Nc1ccc2c(c1)OCCO2)NC1(C(F)(F)F)Oc2ccc(Cl)cc2O1 (configuration not stated)	.	0.02
68	COc1ccc(C2c3c(oc4ccccc4c3=O)C(=O)N2Cc2ccc3c(c2)OCO3)cc1OC (configuration not stated)	-0.47	-0.14
69	CCC(C(=O)N1CCC(C)CC1)n1cnc2onc(C)c2c1=O (configuration not stated)	1.6	.
70	CCOC(=O)c1cnn(-c2ncnc3sc4c(c23)CCCC4)c1N	.	-0.03
71	CC1CCN(S(=O)(=O)c2cnc[nH]2)CC1	0.42	0.19
72	CCN(CC)CCCNC(=O)c1nn(C)c2c1CS(=O)(=O)c1ccccc1-2	6.9*	-1.5
73	Cc1ccc2nc3c(cc(C#N)c(=O)n3-c3c(C)n(C)n(-c4ccccc4)c3=O)c(=O)n2c1	0.36	-1.2
74	O=C(Nc1nc(-c2cccnc2)cs1)C1=COCCO1	0.68	.
75	CC1(C(=O)NC2CCCC2)Cn2c(cc3sccc32)C(=O)N1Cc1ccccn1 (configuration not stated)	1.8	-0.97
76	Cc1ccc(O)c(-c2nc3c(c(=O)[nH]2)Cc2c(CO)cnc(C)c2O3)c1	1.6	-0.6
77	O=C(NCCCN1CCc2ccccc2C1)c1cc2c(s1)-c1ccccc1SC2	0.37	-0.04
78	O=S(=O)(c1ccc(Cl)cc1)N1CCCC1c1ccco1 (configuration not stated)	1.6	-2.7
79	Cc1cc2nc(CSc3nnc(NC(=O)COc4ccccc4)s3)cc(=O)n2o1	1.8	.
80	CSc1cccc(NC(=O)N2c3ccccc3NC3=C(C(=O)CCC3)C2c2ccco2)c1 (configuration not stated)	0.6	.
81	Cc1c(N=NC2=C(O)CC(C)(C)CC2=O)cc2c(c1[N+](=O)[O-])C(C)(C)CC2(C)C	.	-0.82
82	Cc1ccn2cc(-c3cccc(S(=O)(=O)N4CCOCC4)c3)nc2c1	-0.13	-0.85
83	Cc1nn(Cc2nnn(CC(=O)N/N=C/c3ccc(Cl)cc3)n2)c(C)c1Br	.	-1.2
84	CC(C)c1ccc(C2/C(=C(\O)c3ccccc3)C(=O)C(=O)N2CCC(=O)O)cc1 (configuration not stated)	.	-3.2
85	CSc1ccc(C2CC(=O)N3CN(Cc4ccccc4)CSC3=C2C#N)cc1 (configuration not stated)	-2.2	1.5
86	O=C(NCc1cccc(Cl)c1)c1sc(=S)n2c1[nH]c(=O)c1ccccc12	2.9	.
87	CCCCNC(=O)c1c(O)nc2c(C)cccn2c1=O	0.36	0.6
88	Nc1nc2c(c(=O)[nH]1)C(c1ccccc1Cl)CC(=O)N2 (configuration not stated)	0.54	0.37
89	Cc1cc2c(cc1S(=O)(=O)NCCC1=CCCCC1)n(C)c(=O)c(=O)n2C	-0.56	.
90	O=C1CC(c2nnc(Cc3ccc(Cl)cc3)o2)CN1c1ccccc1 (configuration not stated)	0.04	2.1
91	FC(F)(F)c1cc(-c2ccccc2)nc(-n2cncn2)n1	.	0.83
92	O=c1c(-c2ccccc2Cl)c(C(F)(F)F)oc2c(CN3CCCC3)c(O)ccc12	-1.4	-0.34
93	COc1ccc(-c2onc(C)c2C)cc1S(=O)(=O)N1CCN(c2ncccn2)CC1	1.4	.
94	CN1c2ccccc2Oc2nnc(N3CCN(C(=O)c4ccco4)CC3)cc21	1.5	-2.7
95	Cc1ccc(CNc2cc(C)nc3nc(-c4ccc(C)cc4)nn23)cc1	0.67	.
96	CC1(C)C(=O)Nc2ccc(S(=O)(=O)NCc3ccc(F)cc3)cc21	-0.56	.
97	CC1CCCCC1N1CN=C(Nc2nc3ccccc3o2)NC1 (configuration not stated)	-0.66	-2
98	COC(=O)c1cc(NC(=O)NCc2noc3ccccc23)cc(C(=O)OC)c1	-0.45	.
99	COC(=O)c1ccc2c(c1)nnn2Cc1ccc(OC)cc1	0.88	.
100	CCOc1ccccc1CN=C1NS(=O)(=O)C(c2ccc(C)cc2)=C1C	1.1	-1.9
101	CCOC(=O)CSc1nc2ccccc2n2nnnc12	-2.3	-1.6
102	CC1CCN(S(=O)(=O)c2cccc(N)c2)CC1	2.9	-3.9
103	O=C(CCC(=O)N1CCN(c2nc3cccnc3s2)CC1)N1CCN(C(=O)c2ccco2)CC1	-2.1	.
104	CC(C)c1nnc2sc(-c3ccc4c(c3)OCCO4)nn12	2.1	-0.73

Reformatted as labelled records: entries from further up.
[14] CCn1c(C(=O)N2CCC(C(=O)NC3CCCC(C)C3C)CC2)cc2sccc21 (configuration not stated)
  HIV TAR-Tat = 1.1
  CDC25B-CDK2 inh = -0.78

[64] Cc1cc(-c2ccc(C)c(S(=O)(=O)NCCN(CC(C)C)CC(C)C)c2)on1
  HIV TAR-Tat = 0.38
  CDC25B-CDK2 inh = .

(listing goes on)
entry	SMILES	HIV TAR-Tat	CDC25B-CDK2 inh
105	CCc1nnc(SCc2cc(=O)n3ccccc3n2)c2cc3sccc3n12	3.3	.
106	O=C(NCCN1CCOCC1)c1c(O)c2cccc3c2n(c1=O)CCC3	0.48	.
107	CCc1ccc2c(c1)NC(c1ccncc1)=NC(c1cccs1)=N2	0.78	-1.8
108	Cc1ccc(-c2nnc(C3CCN(S(=O)(=O)c4ccc(C)c(C)c4)CC3)o2)cc1	-0.13	-1.9

High-throughput results: PubChem BioAssay, Center for Chemical Genomics, University of Michigan
